Rango complex inh: Rango-importin beta binding inhibition; Q14974; Rango CFP/YFP FRET sensor + importin beta, 45 min; Potency, µM (titrated, usually from 92.2 µM), for inactives: top-dose inhibition of complex formation; 0.031% of 340,000 active; AID 540263; active = rising FRET ratio curve, often small or poorly fitted; inconclusive = mostly compound fluorescence or quenching in the first reads; inactive = flat curves in all reads;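 also: potency is read from the fitted curve at half-maximal effect; 0% = DMSO wells and 100% = buffer wells lacking importin beta; nearly all actives have a fitted effect of over 15% in size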
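FRET biosensor Rango (snurportin 1 IBB between N-terminal EYFP and C-terminal Cerulean), 50 nM in PBS/1 mM DTT/0.02% Tween-20/0.1% BSA, preincubated 5 min RT with compound; 0.125 microM importin beta added, 45 min RT, CFP/YFP FRET ratio read.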
miR-21 reporter: raises the signal of a miR-21 reporter; HeLa miR-21 FLuc reporter, luciferase, 48 h; Potency, µM (series often up to 38.3 µM), for the others: top-dose reporter change, positive = more light; 340,000 tested, under 10 active; active = well fitted rising curve with a large enough effect; inconclusive = small, poorly fitted or top-dose-only effect; inactive = no such curve, though single readings can be large or run the other way;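 also: % of control where 0% means no effect; miR-21 action dims this reporter so a rising signal means less miR-21 action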
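Luminescence from a firefly luciferase reporter carrying a miR-21 binding site downstream, stably expressed under a CMV promoter in HeLa cells that make miR-21 endogenously, reports miRNA modulation after 48 h compound exposure up to approximately 40uM final.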
GLA inh pH 4.5: blocks human alpha-galactosidase A at pH 4.5; P06280; purified enzyme, 4-MU-alpha-Gal fluorescence, pH 4.5; activity change, negative = inhibition, % at 105 µM; 230,000 tested, under 10 active; AID 1467; inconclusive = small, poorly fitted or top-dose-only inhibition, or a rising curve; inactive = flat fitted curve, though single readings scatter; no compound was filed as active;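 also: 0% = full activity with enzyme and -100% = basal without enzyme; dose as in the result columns while the protocol names 77 µM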
Target sequence (P06280 whole entry, looked up): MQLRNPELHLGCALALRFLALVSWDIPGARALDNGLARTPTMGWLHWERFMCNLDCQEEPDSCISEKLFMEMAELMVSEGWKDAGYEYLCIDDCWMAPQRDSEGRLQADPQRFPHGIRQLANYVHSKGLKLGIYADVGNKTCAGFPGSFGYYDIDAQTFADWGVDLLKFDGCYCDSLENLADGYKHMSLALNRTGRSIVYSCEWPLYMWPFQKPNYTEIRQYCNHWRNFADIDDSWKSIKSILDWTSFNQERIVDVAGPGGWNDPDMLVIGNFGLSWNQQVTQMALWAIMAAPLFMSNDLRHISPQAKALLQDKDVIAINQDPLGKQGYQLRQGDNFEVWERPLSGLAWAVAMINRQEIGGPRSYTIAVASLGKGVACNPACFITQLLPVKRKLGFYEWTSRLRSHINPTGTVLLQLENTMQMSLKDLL
Rango release inh: inhibition of RanGTP-driven Rango-importin beta dissociation. O95149+P62826. Biochemical FRET Rango-importin beta, RanGTP-induced dissociation. Potency, µM (top dose mostly 46.1 µM), without a hit: at the top dose activity change, negative = inhibition. 0.071% of 340,000 active; active means falling FRET ratio curve, often poorly fitted, with flat reads before Ran was added; inconclusive means other falling curves, or compound fluorescence or quenching; inactive means flat or rising ratio curve;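 also: potency is read from the fitted curve at half-maximal effect; % of control where 0% means no effect; nearly all actives have a fitted effect of over 45% in size; -100% = wells without RanGTP and RCC1; the record marks most hits as doubtful in a second field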
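Quantitative HTS using a FRET biosensor: 0.1 uM Rango, 0.25 uM importin beta, 0.6 uM Ran, 2 mM GTP, 0.2 uM RCC1 final, PBS with DTT, Tween-20 and BSA. Post-read taken 45 min after Ran addition.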
The depositor's hits bear a star; ? = inconclusive; nt = no result given.

SMILES	Rango complex inh	miR-21 reporter	GLA inh pH 4.5	Rango release inh
CCS(=O)(=O)N1Cc2ccccc2CC1C(=O)Nc1nnc(SCc2ccc(F)cc2)s1 (stereo not drawn)	-3.1%	-6%	2	10%
CCOC(=O)c1c(NC(=O)CCS(=O)(=O)c2ccccc2)sc2c1CC(C)(C)NC2(C)C	2.7%	3%	nt	3%
COC(=O)c1c(-n2cnnn2)sc(C)c1C	?	-9%	10	2%
O=C(CC1(O)C(=O)N(CCc2ccccc2)c2ccccc21)c1ccco1 (stereo not drawn)	2.1%	-14%	3	-6%
O=C(CSc1n[nH]c(-c2ccncc2)n1)Nc1ccccc1Cl	2.3%	nt	nt	-4%
O=Cc1cc([N+](=O)[O-])ccc1N1CCOCC1	2.1%	-4%	-6	6%
CC1CCCC(C)N1C(=O)COC(=O)c1cccs1 (stereo not drawn)	-3.1%	nt	nt	-3%
CC(C)c1ccccc1	1.9%	nt	nt	-12%
O=C(NNC(=O)c1ccccc1-c1ccccc1C(=O)O)c1cccc([N+](=O)[O-])c1	-2.3%	1%	-6	-24%
COC(=O)[C@@H](Cc1c[nH]c2ccccc12)NC(=O)CCC(=O)c1ccc(Br)cc1	-1.2%	-2%	nt	-2%
COc1ccccc1C(=O)NNC(=O)c1csc(N2CCOCC2)n1	-4.6%	nt	nt	0%
Nc1nc(C(=O)N2CCOCC2)nn1S(=O)(=O)c1ccc(Cl)cc1	9.8%	-5%	-11	6%
CC(C)C(=O)Nc1ncc2c(n1)CC(c1cccs1)CC2=O (stereo not drawn)	3.7%	-9%	9	?
O=C(CCCNS(=O)(=O)c1cccs1)N1CCc2ccccc2C1	0.7%	-23%	4	-9%
O=C(OCc1cccc(F)c1)c1ccc2c(=O)n3c(nc2c1)CCC3	?	-13%	4	-11%
Cc1cccc2nc(Cn3c(=O)n(CCC(=O)NCc4ccco4)c(=O)c4ccccc43)cc(=O)n12	6.3%	nt	nt	2%
COc1ccc2oc(=N)c(C(=O)Nc3ccc(C)cc3)cc2c1	0.6%	-13%	nt	-9%
CCCCN1C(=O)/C(=C2\SC(N3CCOCC3)=NC2=O)c2ccccc21	-2.3%	-35%	nt	9%
COc1ccc(C2(CNC(=O)c3ccc(Br)o3)CCOCC2)cc1	-0.5%	-1%	-9	9%
NC(=O)N1N=C2/C(=C/c3ccccc3)CCCC2C1c1ccccc1 (stereo not drawn)	1.0%	13%	nt	1%
Cc1ccc(S(=O)(=O)Nc2cccc3c2O[C@@H](CN(C)C(=O)Nc2ccc4c(c2)OCO4)[C@H](C)CN([C@@H](C)CO)C3=O)cc1	-1.9%	nt	nt	18%
CCSc1nnc(-c2cccs2)o1	0.4%	-28%	3	1%
COc1ccc(S(=O)(=O)N/N=C(/C)c2ccco2)cc1	-1.3%	-47%	nt	1%
Cc1ccc(S(=O)(=O)c2nnn3c2nc(N2CCN(c4ccccn4)CC2)c2ccccc23)cc1C	4.9%	0%	nt	8%
C/C=C/C(=O)Nc1cccc(C2=NOC3(C2)C[C@@H](C(N)=O)N(C(=O)C(c2ccccc2)c2ccccc2)C3)c1 (stereo partly drawn)	1.0%	20%	-21	-15%

Next structures.
SMILES	Rango complex inh	miR-21 reporter	GLA inh pH 4.5	Rango release inh
CCOC(=O)c1ccc(-n2c(O)c(/C=N/NC(=O)C3COc4ccccc4O3)c3ccccc3c2=O)cc1 (stereo not drawn)	?	5%	-10	?
OC(COCc1cccs1)CN1CCN(c2cccc(C(F)(F)F)c2)CC1 (stereo not drawn)	0.0%	4%	1	8%
O=c1c2ccccc2c(-c2ccccc2)nn1Cc1c(Cl)cccc1Cl	0.7%	-3%	-8	15%
Cc1nn(CC(=O)N2CCN(C)CC2)c(=O)c2ccccc12	-3.0%	-1%	4	15%
Cc1c(Cl)cccc1NC(=O)Nc1ccc(C(N)=O)cc1	3.6%	-8%	-8	6%
CN(Cc1cccs1)C(=O)CN1C(=O)c2ccccc2S1(=O)=O	-2.9%	nt	nt	6%
CCC(=O)Oc1oc(-c2ccccc2)nc1C=Nc1ccc(C)cc1	3.2%	-3%	-1	-8%
Oc1ccc(Br)cc1CNc1nccs1	0.0%	-5%	nt	17%
Cn1cc(Cl)c(C(=O)NC(=S)Nc2sc3c(c2C#N)CCCCC3)n1	0.4%	-21%	-3	17%
Cc1ccsc1/C=C1\SC(N2CC(C)OC(C)C2)=NC1=O (stereo not drawn)	0.5%	-12%	-7	2%
Cc1cc(-c2cccs2)nc(-n2cccc2)n1	-1.7%	-20%	-19	11%
CC(=O)C1=C(C)NC(=O)NC1c1cc(Br)ccc1OCC#N (stereo not drawn)	-2.6%	-1%	0	-5%
O=C(O)CCN1C(=O)c2ccc(NC(=O)c3ccco3)cc2C1=O	0.1%	-2%	3	6%
CCOc1cc2c(C#N)c(N3CCNCC3)nc(N)c2c(N)n1	?	-2%	3	-17%
Cc1cc(NC(=O)c2cccc(S(=O)(=O)N3CCCC3)c2)no1	-0.4%	-2%	-1	?
O=C(C(Sc1ccccc1)c1ccccc1)N1CCOCC1 (stereo not drawn)	-0.4%	-3%	7	?
O=C1CC(=O)NC(SCC(=O)Nc2ccccc2[N+](=O)[O-])=N1	-3.0%	-5%	nt	4%
CC(C)(C)C(=O)Nc1ccc(C(=O)OC2CCCCC2)cc1	0.1%	-61%	1	0%
CC1Cc2ccccc2N1C(=O)CSc1ncccn1 (stereo not drawn)	-1.8%	nt	nt	20%
COc1cc(CCCN2CCNC[C@H]2Cc2cccc3ccccc23)cc(OC)c1OC	2.0%	nt	nt	18%
C=CCNC(=O)CSc1cc([N+](=O)[O-])cc(S(=O)(=O)Cc2ccccc2)c1	-0.5%	-1%	0	-8%
C/C(=N\NC1=NCCN1)c1ccc(N)c([N+](=O)[O-])c1	0.2%	-26%	-13	-3%
Cc1[nH]c2ccccc2c1C(=O)CN1C(=O)C(=O)N(CCC2=CCCCC2)C1=O	2.2%	nt	nt	11%
O=C(NCCCN1CCOCC1)c1cc(Cl)ccc1OCc1ccccc1	-0.8%	-2%	nt	0%
Cc1ccc(-c2n[nH]c(=O)c3ccccc23)cc1S(N)(=O)=O	-1.8%	-1%	nt	2%

Some values from above:
Entry for `COc1ccc(C2(CNC(=O)c3ccc(Br)o3)CCOCC2)cc1` under miR-21 reporter: -1%
Entry for `O=Cc1cc([N+](=O)[O-])ccc1N1CCOCC1` under miR-21 reporter: -4%
Entry for `OC(COCc1cccs1)CN1CCN(c2cccc(C(F)(F)F)c2)CC1` (stereo not drawn) under miR-21 reporter: 4%
Entry for `C/C=C/C(=O)Nc1cccc(C2=NOC3(C2)C[C@@H](C(N)=O)N(C(=O)C(c2ccccc2)c2ccccc2)C3)c1` (stereo partly drawn) under Rango release inh: -15%

(next part)
SMILES	Rango complex inh	miR-21 reporter	GLA inh pH 4.5	Rango release inh
Cc1cc(C)cc(N(CC(=O)NC2CCCC2)C(=O)c2csnn2)c1	0.1%	0%	nt	2%
OC(CNCc1ccco1)COc1ccccc1 (stereo not drawn)	-4.8%	-8%	-2	-7%
CCOC(=O)C1CN(S(=O)(=O)c2cc(OC)ccc2OC)C1	3.1%	-1%	nt	-3%
COc1ccc(S(=O)(=O)N2CC(C)N(C(=O)N3CCOCC3)C2)cc1 (stereo not drawn)	?	0%	nt	2%
CN(C(=O)c1ccc(OC2CCN(CCc3ccccc3)CC2)cc1)C1CCOC1 (stereo not drawn)	4.8%	-2%	7	10%
CCOCCN(C(=O)COC)c1cccc(OC)c1	1.8%	-6%	-14	-14%
OC1COC(OCc2ccccc2)C(O)C1O (stereo not drawn)	-3.1%	1%	0	46%
CN(Cc1ccccc1)C(=O)c1[nH]cnc1C(=O)NCc1ccc(CNC(=O)OC(C)(C)C)cc1	-0.1%	nt	nt	14%
CC(C)(C)C(=O)Nc1ccnc(-c2cccnc2)n1	nt	-3%	2	nt
O=C(Cc1ccc(Br)cc1)N1CCN(c2ccccc2O)CC1	0.4%	-36%	6	8%
CCOC(=O)c1c(C)[nH]c(C(=O)OCc2ccc([N+](=O)[O-])cc2)c1C	-2.3%	1%	nt	14%
CC(C)CC(=O)Nc1ccnn1C1CCN(C(=O)c2ccc(Cl)cc2F)CC1	2.7%	-3%	nt	20%
CCCNC(=O)c1ccc2c(c1)ncn2-c1cc(C)cc(C)c1	1.9%	-44%	-16	-9%
CC(=O)Nc1ccccc1NC(=O)C/C(C)=N/NC(=O)C1CCCCC1	-0.7%	-7%	nt	12%
CC1CCCC(C)N1C(=O)COC(=O)CNC(=O)c1ccccc1 (stereo not drawn)	-5.5%	nt	nt	-15%
CN(C(=O)CC1C(=O)NCCN1Cc1ccoc1)C1CCOCC1 (stereo not drawn)	2.4%	0%	7	12%
COc1ccccc1NC(=O)C1=C(C)Nc2nc(CCCO)nn2C1c1ccc2c(c1)OCO2 (stereo not drawn)	4.6%	-2%	-11	-3%
COC(=O)NC1CCS(=O)(=O)C1 (stereo not drawn)	-3.9%	0%	-4	14%
CC(=O)N1CCCN(Cc2nc(C3(c4ccc(C)cc4)CCCC3)no2)CC1	3.2%	0%	2	1%
CCOc1ccc(S(=O)(=O)N2CCN(CC)CC2)cc1NC(=O)c1ccccc1F	7.2%	1%	nt	-9%
CC(=O)[C@H]1CC[C@H]2[C@@H]3CC=C4C[C@@H](OS(=O)(=O)O)CC[C@]4(C)[C@H]3CC[C@]12C	2.6%	nt	nt	2%
CCOc1ccccc1C1C(C#N)=C(SCC(=O)OC)NC(=O)C1C(=O)OC (stereo not drawn)	?	-6%	-4	-2%
O=C(CN1CCN(S(=O)(=O)c2ccccc2[N+](=O)[O-])CC1)NC(=O)NCc1ccco1	-2.9%	-1%	-7	-23%
O=C(O)c1cc(S(=O)(=O)N2CCCCC2)ccc1N1CCCC1	3.2%	nt	nt	16%
COc1ccc(CSc2nnnn2-c2ccc(C(=O)O)cc2)cc1	-1.0%	-1%	nt	10%

Quoted at random: 2 compounds from above
SMILES	Rango complex inh	miR-21 reporter	GLA inh pH 4.5	Rango release inh
O=C(Cc1ccc(Br)cc1)N1CCN(c2ccccc2O)CC1	0.4%	-36%	6	8%
CCOC(=O)c1c(C)[nH]c(C(=O)OCc2ccc([N+](=O)[O-])cc2)c1C	-2.3%	1%	nt	14%

New compounds follow:
SMILES	Rango complex inh	miR-21 reporter	GLA inh pH 4.5	Rango release inh
Brc1ccc2[nH]c3c(NCc4ccccn4)ncnc3c2c1	1.9%	-4%	-10	-7%
COc1ccc(-c2[nH]ncc2CN(C)C(C)c2ccon2)cc1F (stereo not drawn)	-1.9%	-18%	-6	-6%
Cc1cccc(-c2nnn(Cc3nnc(NC(=O)c4ccccc4)s3)n2)c1	1.0%	-6%	1	-2%
Cc1nnc(SCC(=O)N(C2CCCCC2)C2CCS(=O)(=O)C2)n1C (stereo not drawn)	0.1%	nt	nt	1%
CC1CCN(c2c(NCc3ccc(C(=O)NCCc4ccc(Cl)cc4)cc3)c(=O)c2=O)CC1	0.3%	-8%	8	?
CC(=O)Nc1nnc(C)s1	-9.5%	-2%	7	?
Cc1ccc(S(=O)(=O)CCC(=O)OCC(=O)NC(=O)c2ccccc2)cc1	-0.2%	nt	nt	12%
CCOC(=O)CNC(=O)CSc1nnc(NC(=O)c2ccc3c(c2)OCO3)s1	1.4%	-19%	nt	-3%
N#C/C(=C/c1cn(-c2ccccc2)nc1-c1cccc(S(=O)(=O)N2CCCC2)c1)C(=O)NCc1ccco1	0.4%	-4%	-9	-2%
Cc1nn(C)c(Oc2ccccc2)c1CCNS(=O)(=O)c1ccc(F)cc1	-3.1%	14%	-3	-10%
CSCCC(NC(=O)c1ccco1)C(=O)NCCc1ccc(Cl)cc1 (stereo not drawn)	-0.1%	nt	nt	1%
Cn1cc(CN2CCN(c3ccc(Cl)cn3)CC2)c(-c2ccccc2F)n1	-4.1%	-2%	-18	0%
Cc1ccccc1OCC(=O)Nc1nc2ccccc2[nH]1	0.1%	-55%	2	-4%
COC(=O)c1ccccc1NC(=O)CNC(=O)c1ccc(OC)cc1	-0.2%	-10%	0	8%
O=[N+]([O-])c1ccccc1Oc1cnc2ccccc2n1	0.1%	-5%	0	5%
CCOC(=O)c1c(NC(=O)Cn2nc(C(F)(F)F)cc2C)sc(C)c1C	-1.1%	-2%	7	-16%

Screens (PubChem BioAssay)

These rows are one share of the data (hit frequency here may not be typical).
